# MT1-MMP act inh: MT1-MMP (human) activation inhibition; hit rate 0.061% among 360,000; P50281; GFP/RFP ratio change, % at 20 µM; HT1080 RFP-PRO-GFP cells, GFP/RFP ratio fluorescence, overnight; percent of plate control window, DMSO zero; AID 651647;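 active = GFP/RFP ratio change of at least 30% with cell ATP level not reduced by more than half and red fluorescence within 50% of control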; also: strong numbers were not always called active
#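 Test system: HT1080 cells expressing an RFP-PRO-GFP fluorescent reporter construct / Compound dosing: single-point 20 µM compound, 1% DMSO / Schedule: cells overnight before dosing, compound overnight, 37 °C, 5% CO2 / Evaluation: GFP/RFP fluorescence ratio / Control set: DMSO and RFP-L50D-GFP cell wells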
# CSC inhib: blocks cancer stem cells; hit rate 1.1% among 300,000; cancer stem cell-like cells viability, luminescence; inhibition, % at 7.5 µM;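 active = mean at 75% or more and at least half the replicates too; inconclusive = mean and replicates disagree; tested in HMLE shEcad cells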;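 also: 0% = median of negative and 100% = median of positive control wells; the first replicate is given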
# Rce1 inhib: blocks yeast Ras-converting enzyme; yeast membranes, quenched prenylated peptide cleavage fluorescence; Q03530; calls only; hit rate 0.27% among 290,000;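 active = fall in fluorescence gain of 50% or more versus controls, with final raw signal at or below 3038400; inconclusive = same 50% fall but final raw signal above 3038400; inactive = fall in fluorescence gain under 50%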;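 also: plate controls were neutral control wells for no effect and wells lacking membranes for full effect; tested at 10 µM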
# Target sequence (Q03530 whole entry, looked up): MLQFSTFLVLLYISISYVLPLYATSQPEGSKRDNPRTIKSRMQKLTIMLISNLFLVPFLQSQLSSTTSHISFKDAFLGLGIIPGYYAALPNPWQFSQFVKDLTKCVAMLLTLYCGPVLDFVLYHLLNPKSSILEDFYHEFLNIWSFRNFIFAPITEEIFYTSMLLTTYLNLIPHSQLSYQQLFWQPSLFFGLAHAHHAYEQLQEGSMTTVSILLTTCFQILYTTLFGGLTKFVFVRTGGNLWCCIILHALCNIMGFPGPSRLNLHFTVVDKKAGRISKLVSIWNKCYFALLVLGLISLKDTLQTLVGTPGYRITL
# Env fusion inh: blocks HIV Env-driven cell-cell fusion | HeLa-JRFL Env/CEM21 cell fusion, luciferase | inhibition, % at 12.3 µM | AID 651610 | hit rate 1.1% among 360,000;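 active = mean replicate inhibition score of at least 50 and every replicate individually at or above 50; inconclusive = only one of the two criteria met; inactive = mean below 50 and not all replicates reaching 50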;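 also: 0% = plate neutral controls and 100% = maraviroc near 300 nM; one replicate is shown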
# eIF4H inh: inhibitors of RNA binding by human eIF4H; eIF4H fluorescence polarization binding assay; hit rate 0.94% among 290,000; AID 2012; inhibition, % at 35 µM;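 active = 50% or more with normal probe brightness, or confirmed in later tests; inconclusive = above 50% with abnormal brightness, or retests that disagree; inactive = below 50% or failed in later tests; about a fifth of its hits are not listed in these tables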;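 also: calls also rest on retests at 20 µM and on dose response follow-up; 0% = protein and probe with vehicle and 100% = probe without protein; strong numbers were not always called active; many hits fall short of the cut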
# PABP polyA inh: PABP-poly(A) binding inhibition. PABP-poly(A) RNA binding, fluorescence polarization. P11940. inhibition, % at 35 µM. AID 2014. hit rate 1% among 290,000;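 active = 50% or more with normal probe brightness, or confirmed in later tests; inconclusive = above 50% with abnormal brightness, or retests that disagree; inactive = below 50% or failed in later tests; about a fifth of its hits are not listed in these tables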;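 also: calls also rest on retests at 20 µM and on dose response follow-up; controls were probe without protein and protein plus probe with vehicle; some compounds called inactive have numbers as strong as hits; many hits fall short of the cut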
# Yeast UUG start: yeast start codon fidelity modulation. S. cerevisiae UUG-firefly luciferase reporter, luminescence/redox ratio. activity score, % at 18.7 µM. hit rate 0.13% among 350,000. AID 602363;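 active = replicate mean at a twofold rise or more, about +100% in these data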;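 also: firefly luciferase made from a UUG start codon reports start codon fidelity; reporter light over untreated wells divided by growth signal over untreated wells; some hits fall short of that in this replicate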
# eIF4H inh retest: also measured in eIF4H inh; calls as there; inhibition, %; compound at 20 µM; confirmation average;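 mean of two retest wells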
# PABP polyA inh retest: recorded beside PABP polyA inh, whose call it bears; inhibition, %; compound at 20 µM; confirmation repeats;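 mean of two retest wells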
# MT1-MMP act inh RFP: further read-out of MT1-MMP act inh, marked with its call; RFP signal change, %; measured here: RFP expression control read;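 0 = vehicle wells; hits needed this value within 50% of zero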
# * = called active by the depositor; i = inactive; ? = inconclusive; · = not tested or not shown.
# Preview (7 entries):
SMILES,MT1-MMP act inh,MT1-MMP act inh RFP,CSC inhib,Rce1 inhib,Env fusion inh,eIF4H inh,PABP polyA inh,Yeast UUG start,others
O=C(c1cccc(F)c1)N1CCC(O)(c2cccnc2)CC1,1,2,-9,i,-17,-2,-4,-5,
O=C(NCc1nnnn1-c1ccccc1)c1ccc2ccccc2c1,3,0,·,·,-44,·,·,10,
COc1ccnc(Oc2ccc(F)cc2)c1C#N,3,-1,36,i,-11,-7,8,-9,
CCOC(=O)c1ccc(NC(=O)c2nc[nH]c2C(=O)N[C@H](C)CO)cc1,3,-5,·,·,0,·,·,-20,
O=C(OCc1ccc([N+](=O)[O-])cc1Cl)c1cnccn1,-2,3,0,i,22,-2,-7,-12,
CC(=O)Cc1nsc(NC(=O)c2ccccc2Cl)n1,-7,0,-8,i,-17,-5,-4,-11,
O=C1C2C3C=CC(O3)C2C(=O)N1N=Cc1ccc2c(c1)OCO2 (configuration not stated),6,4,·,·,14,·,·,-30,

# The listing (from the top)
SMILES,MT1-MMP act inh,MT1-MMP act inh RFP,CSC inhib,Rce1 inhib,Env fusion inh,eIF4H inh,PABP polyA inh,Yeast UUG start,others
O=C(c1cccc(F)c1)N1CCC(O)(c2cccnc2)CC1,1,2,-9,i,-17,-2,-4,-5,
O=C(NCc1nnnn1-c1ccccc1)c1ccc2ccccc2c1,3,0,·,·,-44,·,·,10,
COc1ccnc(Oc2ccc(F)cc2)c1C#N,3,-1,36,i,-11,-7,8,-9,
CCOC(=O)c1ccc(NC(=O)c2nc[nH]c2C(=O)N[C@H](C)CO)cc1,3,-5,·,·,0,·,·,-20,
O=C(OCc1ccc([N+](=O)[O-])cc1Cl)c1cnccn1,-2,3,0,i,22,-2,-7,-12,
CC(=O)Cc1nsc(NC(=O)c2ccccc2Cl)n1,-7,0,-8,i,-17,-5,-4,-11,
O=C1C2C3C=CC(O3)C2C(=O)N1N=Cc1ccc2c(c1)OCO2 (configuration not stated),6,4,·,·,14,·,·,-30,
Cc1nc(NC(=O)C23CCC(C)(C(=O)O2)C3(C)C)sc1C (configuration not stated),3,1,-10,i,·,1,-6,2,
COc1ccc(/C=C(\C#N)C(=O)OCC(=O)N2CC(C)OC(C)C2)cc1 (configuration not stated),-1,0,-14,i,4,2,5,·,
Cc1ccc(NC(N)=S)cc1,3,3,-15,i,-43,-5,-7,·,
Cn1c(SCC(=O)Nc2ccc(F)cc2F)nnc1-c1cccnc1,16,-1,0,i,4,9,-4,-8,
CCOC(=O)COc1ccc(/C=C2/C(=O)NN(c3ccc(F)cc3)C2=O)cc1OC,·,·,21,i,2,0,8,-5,
COc1ccc(OC)c(/C=N/NC(=S)NCCc2ccccc2)c1,3,-1,-15,i,9,-5,5,-24,
CC(C(=O)Nc1sc2c(c1C(=O)NCC1CCCO1)CCC2)N1C(=O)c2ccccc2C1=O (configuration not stated),-1,4,-8,i,39,-3,10,·,
Cc1ccc(C)c(S(=O)(=O)N2CCN(CC(=O)Nc3cc(C)on3)CC2)c1,-1,-3,4,i,·,4,4,-8,
COc1ccc(-c2cn[nH]c2-c2ccc(OC)cc2)cc1,-14,-9,8,i,60*,-11,0,-35,
CC(C)(C)C1CCC2(CC1)C(C#N)=C(SCC(=O)NC1CCCCC1)NC(=O)C2C#N (configuration not stated),7,-6,?,i,·,-9,-8,·,
Cc1occc1-c1nnc(SCC(=O)NC2CCCC2)n1-c1ccccc1,3,5,6,i,·,-7,18,-3,
COc1ccc(NC(=O)COC(=O)c2ccc(O)cc2)c([N+](=O)[O-])c1,-4,-1,-12,i,9,-6,-1,·,
CC1=NN(C(C#N)c2ccccc2C)C(c2ccccc2)C1 (configuration not stated),0,4,2,i,1,-2,-2,-6,
Brc1ccc(-c2cn3ccccc3n2)s1,0,-2,-6,i,·,-8,25,·,
CC(NC(=O)COC(=O)c1cc(=O)[nH]c2ccccc12)c1ccccc1 (configuration not stated),-2,1,·,i,-10,-5,8,·,
Cc1ccc2c(CSc3nc4ccccc4c(=O)n3CCCO)cc(=O)oc2c1C,-1,0,12,i,·,6,6,-3,
O=C(/C=C/[C@H]1O[C@@H](n2cnc3c(NC(=O)c4ccccc4)ncnc32)[C@H](O)[C@@H]1O)NCCc1c[nH]c2ccccc12,2,4,·,·,19,·,·,-15,
Cc1ccc2c(c1)N(C(=O)CCC(=O)NCCCN1CC(C)CC(C)C1)CCO2 (configuration not stated),3,8,2,i,-22,-10,4,1,

# (continued)
SMILES,MT1-MMP act inh,MT1-MMP act inh RFP,CSC inhib,Rce1 inhib,Env fusion inh,eIF4H inh,PABP polyA inh,Yeast UUG start,others
Clc1ccc(/C=C/c2nc3ccccc3[nH]2)cc1,13,1,76*,i,i,-1,-5,-82,
CC1CC(C)CN(c2ccc(-n3cnnn3)cc2[N+](=O)[O-])C1 (configuration not stated),6,3,-1,i,·,5,4,-10,
CN(C)S(=O)(=O)c1ccc(S(=O)(=O)N2CCN(CCC#N)CC2)cc1,·,·,-36,i,22,-3,-13,-4,
O=C(COC(=O)/C=C/c1cccc(Br)c1)NCCC1=CCCCC1,-1,0,-9,i,1,4,-3,·,
CC(C)NC(=O)CN1CCC(c2nc3ccccc3[nH]2)CC1,-2,4,-3,i,-5,-2,2,-4,
COc1cc(CNCc2ccccn2)ccc1OCc1ccccc1Cl,2,-3,·,i,20,-11,5,-4,
CCOC(=O)N1CCN(/C=C(\C#N)c2nc3ccccc3s2)CC1,-20,3,-3,i,21,6,29,-12,
CCOC(=O)C1(c2ccccc2)NC(c2ccccc2C)C2C(=O)N(c3ccc4c(c3)OCO4)C(=O)C21 (configuration not stated),-7,-9,-1,i,·,-4,-8,-2,
c1ccc2c(c1)CCN(C1CCCCC1)C2,-2,0,-7,i,-15,6,6,-13,
Cc1ccc(NC(=O)CCN2C(=O)c3cccc4cccc(c34)C2=O)cc1,-4,-3,12,i,7,2,7,·,
CCOC(=O)c1c(S(=O)(=O)NCc2ccc(C)o2)c(C)n(C)c1C,12,0,-4,i,-4,-1,1,-20,
Cc1ccc(S(=O)(=O)N2CCC(C(=O)OCC(=O)N(C)C3CCCCC3)CC2)cc1C,-1,3,-4,i,-29,·,·,-4,
CCOc1cc(/C=C2\SC(=S)N(N3CCOCC3)C2=O)ccc1O,-7,12,-5,i,5,3,-6,·,
CCN1CCOC(CC(=O)Nc2ccc([N+](=O)[O-])cc2)C1=O (configuration not stated),-5,1,-5,i,-11,0,-10,·,
Cc1ccc(C)c(NC(=S)NCc2ccccc2)c1,-2,-3,-6,i,-9,-12,-6,-11,
CCc1ccc(CNC(=O)CCC(=O)N2Cc3cccc(OC)c3Oc3ncccc32)cc1,1,6,-10,i,19,4,3,-12,
COc1ccc(-c2noc(N3CCC(C(=O)NCCCN4CCC(C)CC4)CC3)n2)cc1,7,-8,-3,i,43,8,-7,-6,
C=CCN1C(=NC(=O)COc2ccc(Cl)cc2)SC2CS(=O)(=O)CC21 (configuration not stated),-2,-1,-1,i,16,-18,0,0,
CC(C)(C)c1nnc(NC(=O)CCC2CCCCC2)s1,-2,1,·,·,-26,·,·,-3,
COc1ccc(CC(=O)OCC(=O)NC2CCCCC2)cc1,0,3,·,·,-2,·,·,-14,
O=C(Nc1ccccc1)/C(=C\c1cccs1)NC(=O)c1ccccc1,1,2,-9,i,-20,-5,5,·,
COc1cccc(-c2cc(C(F)(F)F)nc(N3CCC(C)CC3)n2)c1,-1,-2,46,i,50,-2,-4,-11,
Nc1nonc1C(=O)NCCNCc1ccccc1OCc1ccc(F)cc1,10,-2,3,i,·,-3,-3,3,
COc1ccc(-n2c(SCC(=O)N3CCOCC3)nc(O)c(Cc3ccccc3)c2=O)cc1,4,5,-12,i,·,2,-5,-1,
CC(=O)c1c(COC(=O)c2ccccc2Cl)nc2ccccc2[n+]1[O-],2,0,-9,i,10,-6,8,-12,

# (more compounds)
SMILES,MT1-MMP act inh,MT1-MMP act inh RFP,CSC inhib,Rce1 inhib,Env fusion inh,eIF4H inh,PABP polyA inh,Yeast UUG start,others
O=C(O)CN1C(=O)/C(=C\c2cn(-c3ccccc3)nc2-c2ccccc2)SC1=S,0,5,31,i,·,3,22,4,
COc1ccc(NC(=O)C2C3CCC(O3)C2C(=O)O)cc1OC (configuration not stated),3,2,-2,i,15,-6,5,-20,
N#Cc1sc2nc(-c3ccccc3)cc(C(F)(F)F)c2c1N,-24,4,·,i,-14,-3,0,·,
Cn1c(=O)c(Cc2ccccc2)c(O)c2ccccc21,4,2,-4,i,·,-9,-7,-22,
C/C(=N\NC(=O)c1ccccc1)c1nc2ccccc2n1C,3,4,14,i,-17,-1,-10,·,
CCC(C(=O)NCCc1ccc(C)cc1)n1nc(C)c2c(C)n(-c3ccccc3)nc2c1=O (configuration not stated),1,-6,-3,i,-5,-11,-6,8,
O=C(Nc1cc(C(F)(F)F)ccc1N1CCCC1)C1=COCCO1,-3,-2,-12,i,-2,·,·,-15,
Cc1cnc(CNC(=O)c2ccc3nc([C@@H]4O[C@H](CO)[C@H](O)[C@H](O)[C@H]4O)[nH]c3c2)cn1,2,5,·,·,14,·,·,-5,
Fc1ccc(C2CC(c3ccccc3)n3ncnc3N2)cc1 (configuration not stated),1,1,1,i,·,5,13,-19,
CCOc1ccc(C2/C(=C(/O)c3ccc(OC)cc3)C(=O)C(=O)N2c2cc(C)on2)cc1OC (configuration not stated),2,1,2,i,·,-16,18,-6,
Clc1ccc(OCc2nnc(SCc3nc4ccccc4[nH]3)n2Cc2ccco2)cc1,-4,-14,12,i,56*,1,6,-33,
CC(C)CCNC(=O)CCC(=O)NNc1nc2ccccc2c2nc(-c3ccccc3)nn12,4,-3,17,i,-46,4,-6,-9,
CSCCC(NC(=O)c1ccc(Cl)cc1Cl)C(=O)N1CCCCCCC1 (configuration not stated),1,-3,·,·,16,·,·,6,
CCCOC(=O)C1=C(C)N(C)C(=O)NC1c1cc2c(cc1[N+](=O)[O-])OCO2 (configuration not stated),-1,5,1,i,-21,83,10,4,eIF4H inh retest=8;PABP polyA inh retest=7
CCOP(=O)(OCC)C(C)(C)NC(=O)c1cc([N+](=O)[O-])cc([N+](=O)[O-])c1,3,4,-2,i,-14,6,1,2,
CCC(=O)OCC(=O)N=c1sccn1Cc1ccccc1Cl,3,1,-13,i,9,13,5,-2,
CC(C)(C)c1ccc(-c2cc(N)n[nH]2)cc1,-3,1,-2,i,·,2,-4,-18,
C1CSC2(N1)C1CC3CC(C1)CC2C3 (configuration not stated),-2,10,-11,i,·,-6,11,-5,
O=C(CN1C(=O)CSc2ccccc21)N/N=C/c1ccco1,-4,-6,-4,i,-17,-13,-6,-12,
N#Cc1nc(-c2ccco2)oc1N1CCC(Cc2ccccc2)CC1,-3,3,42,i,19,-13,2,-16,
O=C1CCC(CCc2nc3ccccc3[nH]2)(c2ccccc2)C(=O)N1 (configuration not stated),-1,2,·,·,-10,·,·,4,
Fc1ccc(-n2c(Cc3cccs3)n[nH]c2=S)cc1Cl,-2,-3,13,i,-11,5,-5,-15,
Cc1sc(N/N=C/c2cccnc2)nc1-c1ccccc1,-9,-6,18,i,-171,-8,-5,-4,
Cc1ccc(-c2cn(-c3ccccc3)c(SCC(=O)NC3CCS(=O)(=O)C3)n2)cc1C (configuration not stated),0,-6,2,i,-49,-6,4,5,
CC(=O)c1cccc(NC(=O)CN2C(=O)COc3ccc(Cl)cc32)c1,3,1,-13,i,·,2,-5,-13,

# Compound activity deposited in PubChem BioAssay by several laboratories.
